Compound activity from PubChem BioAssay.
Tau fluor counter – counter-screen for tau fibril formation inhibitors; Potency, µM (top dose mostly 57.7 µM), without a hit: top-dose activity change, negative = decrease; tau K18 P301L Alexa594 fluorescence, heparin fibrillization; 0.93% of 280,000 active; AID 1463; further: nearly all actives have a fitted effect of over 55% in size
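Human K18 P301L tau (15 uM unlabeled plus 0.24 uM Alexa 594-labeled, final) in 100 mM sodium acetate pH 7 was mixed with compound and 20 uM heparin and incubated 6 hr at 37 C.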
L3MBTL1 block – blocks human L3MBTL1. Q9Y468. AlphaScreen L3MBTL1–H3K9me1 peptide binding. Potency, µM (titrated, usually from 57.1 µM), for inactives: top-dose activity, negative = inhibition, usual class: inhibitors. 0.66% of 230,000 active; further: nearly all actives have a fitted effect of over 60% in size
Target sequence (Q9Y468 whole entry, looked up): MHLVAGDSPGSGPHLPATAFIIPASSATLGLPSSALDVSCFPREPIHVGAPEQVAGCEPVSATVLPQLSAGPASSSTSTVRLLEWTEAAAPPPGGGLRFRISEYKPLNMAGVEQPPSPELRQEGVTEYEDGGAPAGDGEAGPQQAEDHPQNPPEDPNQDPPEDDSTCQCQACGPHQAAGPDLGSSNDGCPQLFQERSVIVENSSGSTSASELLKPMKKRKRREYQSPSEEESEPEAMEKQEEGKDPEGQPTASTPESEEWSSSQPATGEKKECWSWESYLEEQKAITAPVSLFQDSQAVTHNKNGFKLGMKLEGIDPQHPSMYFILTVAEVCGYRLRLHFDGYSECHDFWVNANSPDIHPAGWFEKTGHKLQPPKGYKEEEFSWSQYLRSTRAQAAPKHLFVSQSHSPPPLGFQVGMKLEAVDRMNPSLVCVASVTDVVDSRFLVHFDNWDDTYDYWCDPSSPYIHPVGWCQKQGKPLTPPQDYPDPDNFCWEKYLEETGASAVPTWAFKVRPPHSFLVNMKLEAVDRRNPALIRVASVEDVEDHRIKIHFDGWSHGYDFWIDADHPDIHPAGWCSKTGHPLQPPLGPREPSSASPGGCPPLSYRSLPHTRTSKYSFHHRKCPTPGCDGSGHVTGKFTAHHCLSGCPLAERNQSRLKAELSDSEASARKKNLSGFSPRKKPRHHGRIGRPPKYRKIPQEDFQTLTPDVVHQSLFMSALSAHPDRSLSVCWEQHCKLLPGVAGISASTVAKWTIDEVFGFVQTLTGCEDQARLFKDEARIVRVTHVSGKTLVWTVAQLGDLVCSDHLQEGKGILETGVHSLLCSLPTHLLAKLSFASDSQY
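Read-out is AlphaScreen signal from streptavidin donor and nickel chelate acceptor beads (10 ug/mL final each) bridging L3MBTL1 (50 nM) and biotinylated K9-monomethylated H3(1-15) peptide (75 nM), after 30 min compound exposure at room temperature.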
Tau fibril FP – blocks human tau fibril formation measured by polarization. P10636. K18 P301L tau heparin fibrillization, Alexa594 FP, 6 h. Potency, µM (highest dose often 57.7 µM), without a hit: top-dose activity, negative = inhibition, actives largely listed as inhibitors. 0.39% of 280,000 active. AID 1468; further: nearly all actives have a fitted effect of over 55% in size
Target sequence (P10636 561-689 P618L limits assumed): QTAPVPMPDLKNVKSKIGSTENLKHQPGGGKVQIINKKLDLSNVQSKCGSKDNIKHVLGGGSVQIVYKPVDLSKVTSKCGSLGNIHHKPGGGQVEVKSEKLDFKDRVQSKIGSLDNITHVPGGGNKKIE
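Recombinant K18 P301L […], labeled with Alexa 594 at 0.24 uM over 15 uM unlabeled; heparin inducer 20 uM final; 37 C, 6 hr; FP endpoint.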
TexasRed fluor – Texas Red fluorescence interference in TRb-SRC2 counter-screen | TRb/SRC2 Texas Red total fluorescence interference | Potency, µM (top dose mostly 106 µM), inactives show at the highest dose fluorescence change, negative = quenching | 0.29% of 280,000 active | AID 1479; active means well fitted curve in either direction with a large enough effect; inconclusive means small, poorly fitted or top-dose-only effect
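Human TRβ ligand-binding domain (0.6 uM) and Texas Red SRC2 peptide (20 nM) in Tris buffer with 1 uM T3 and 5% DMSO were incubated with pinned compound for 5 hr at ambient temperature. Total fluorescence was computed as S + 2P (555/632 nm).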
TRb SRC2 PPI – TRbeta-SRC2 interaction inhibition | P10828 | TRbeta-SRC2 peptide binding, fluorescence polarization; receptor liganded with 1 µM T3 | Potency, µM (top dose mostly 106 µM), inactives show at the highest dose activity change, negative = inhibition, usual class: inhibitors | 0.065% of 280,000 active;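 further: plate controls were bound peptide for no effect and peptide without receptor for full effect; nearly all actives have a fitted effect of over 50% in size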
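Fluorescence polarization of 20 nM Texas Red SRC2 peptide (20-aa NR interaction domain) bound to 0.6 uM human TRb ligand-binding domain, with 1 uM T3, after 5 hr at ambient temperature; inhibition seen as decreased polarization.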
Tau ThT inhib – tau fibrillization inhibition (ThT binding); P10636; recombinant tau K18 P301L (four-repeat tau fragment), heparin-induced fibrillization, ThT fluorescence; Potency, µM (highest dose often 57.4 µM), for the others: at the top dose activity, negative = inhibition, most hits filed as inhibitors; 2.1% of 270,000 active; further: nearly all actives have a fitted effect of over 55% in size
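Aggregation was driven by heparin (20 uM final) acting on recombinant tau […] bearing P301L in 100 mM sodium acetate pH 7; fibrils were detected with Thioflavin T.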
GLA spleen mod – alpha-galactosidase A (human) modulation; P06280; human spleen homogenate, 4MU-alpha-Gal fluorescence, 40 min; Potency, µM (top dose mostly 80 µM), for the others: at the highest dose activity change, negative = inhibition, actives largely listed as inhibitors; 0.008% of 240,000 active;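 further: 0% = enzyme with vehicle and -100% = no enzyme basal signal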
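qHTS titration in buffer at pH 5.0. Alpha-galactosidase activity in spleen homogenate was measured via 4-methylumbelliferone release from 1 mM fluorogenic substrate after 40 min at 37C and a pH 10 stop. AC50 came from Hill fits of control-normalized data.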
Active calls of the source: *; ? = inconclusive; . = no result given; & = joins results of further samples; [ ] = remark or other dose. Unless noted, the call rests on the fitted dose curve; in most records, active means well fitted curve in the direction sought with a large enough effect; inconclusive means small, poorly fitted or top-dose-only effect, or another doubt; inactive means no such curve, though single readings can be large; an effect the other way counts as inactive or inconclusive. Unless noted, on the % scale 0 is the no-effect control and ±100 the full control effect; potency means the concentration at half of the fitted maximal effect.

Order of values: Tau fluor counter | L3MBTL1 block | Tau fibril FP | TexasRed fluor | TRb SRC2 PPI | Tau ThT inhib | GLA spleen mod
- COc1ccc(NC(=O)c2ccc(COCC(F)(F)C(F)F)cc2)cc1OC
  1% | -14% | -11% | -1% | -9% | 9% | 12%
- CCN(CC(=O)Nc1ccccc1C(=O)OC)S(=O)(=O)c1ccccc1
  -9% | . | 0% | 1% | -21% | -2% | 2%
- Cc1ccc(C)c2[nH]c(=O)c(CCNC(=O)c3ccc4c(c3)OCO4)cc12
  -1% | 1% | -5% | 0% | -12% | -4% | -7%
- O=C(N/N=C/c1cccnc1)c1ccccc1OCc1ccc(Br)cc1
  8% | . | 4% | -1% | -2% | -2% | -3%
- Nc1nc(-c2ccc(F)cc2)cs1
  2% | -3% | 12% | -1% | 1% | -7% | -7%
- O=[N+]([O-])c1nn(-c2ccc3c(c2)OCCO3)n(O)c1=NC1CCN(Cc2ccccc2)CC1
  -13% | . | 1% | 1% | -1% | ? | 2%
- CCn1c(SCC(=O)N2CCc3ccccc32)nnc1-c1ccco1
  -7% | -1% | -3% | 3% | 3% | -13% | 9%
- CN(C)c1ccc(C(=O)/C=C/c2ccccc2)cc1
  -26% | 11% | 8% | -6% | -3% | ? | 0%
- Cc1ccnc(SCc2cc(=O)c(OC(=O)c3ccc(S(=O)(=O)N4CCCC4)cc3)co2)n1
  2% | 4% | 11% | 0% | -9% | -15% | 6%
- CN(CC(=O)Nc1cccc2c1CCCC2)S(=O)(=O)c1ccc(Br)cc1
  -8% | -1% | -5% | 0% | -5% | -1% | -15%
- COc1ccc(NC(=O)c2ccccc2Sc2ccc(NC(C)=O)nc2)cc1
  0% | ? | -5% | -5% | -1% | -2% | 6%
- CN(C)C(=O)c1cc2cc(Br)ccc2s1
  -4% | 21% | -6% | -2% | 5% | -5% | -4%
- C[C@@H](C(=O)NCc1ccccc1)[C@@H]1C[C@@]1(C)[C@@H](NC(=O)OCc1ccccc1)c1ccccc1
  10%&-3% | -9% | 7%&15% | -3%&-3% | 0%&6% | ? | -1%&-3%
- CC(=O)Nc1cc(C)nn1-c1nc2ccccc2s1
  -14% | . | -3% | 1% | -2% | ? | -6%
- Cc1cc(C)nc(SCCC(=O)Nc2ccccc2C)n1
  -2% | -1% | 2% | 1% | -20% | -4% | 10%
- COC(=O)CNc1nc(Cl)nc(Nc2ccc(C)cc2)n1
  4% | 15% | -4% | 0% | -3% | 1% | -11%
- COC(=O)N(NC(=O)C(O)(CCC(C)C)CCC(C)C)c1ccccc1
  -4% | 1% | 8% | 7% | 4% | -2% | 9%
- COc1ccc(C(=O)Nc2ccc(C(=O)NCCc3ccccc3)cc2)cc1
  -4% | -25% | 1% | 0% | 4% | 2% | 7%
- Cc1cc(S(=O)(=O)N(Cc2ccccn2)Cc2ccco2)ccc1-n1cnnn1
  -7% | -6% | 2% | -5% | -3% | -8% | -2%
- O=C(c1cnccn1)N1CCN(c2ccccc2F)CC1
  -4% | -3% | 14% | 1% | -12% | -4% | 5%

Part of the list above, with each value named.
> Cc1cc(C)nc(SCCC(=O)Nc2ccccc2C)n1
  Tau fluor counter = -2% | L3MBTL1 block = -1% | Tau fibril FP = 2% | TexasRed fluor = 1% | TRb SRC2 PPI = -20% | Tau ThT inhib = -4% | GLA spleen mod = 10%

> COC(=O)CNc1nc(Cl)nc(Nc2ccc(C)cc2)n1
  Tau fluor counter = 4% | L3MBTL1 block = 15% | Tau fibril FP = -4% | TexasRed fluor = 0% | TRb SRC2 PPI = -3% | Tau ThT inhib = 1% | GLA spleen mod = -11%

Next part.
Order of values: Tau fluor counter | L3MBTL1 block | Tau fibril FP | TexasRed fluor | TRb SRC2 PPI | Tau ThT inhib | GLA spleen mod
- COc1ccc(-c2cccc(C(=O)Nc3ccc(OC)c(OC)c3)c2)cc1
  -21% | -3% | -8% | -4% | -1% | -9% | -13%
- COc1cc(Cl)c(S(=O)(=O)N2CC(C)OC(C)C2)cc1Cl (centres undefined)
  0% | 6% | -1% | -2% | 5% | 2% | 0%
- O=C(Cc1ccccc1)NC1CCN(S(=O)(=O)c2ccc(C(=O)O)cc2)CC1
  -3% | -5% | 0% | -5% | -3% | -8% | 5%
- COc1ccc(NC(=O)c2cc(-c3ccc(OC)c(OC)c3)on2)cc1OC
  -5% | . | 3% | 4% | -1% | ? | 7%
- CCC(=O)Nc1ccc(C(=O)Nc2ccc(OC)cc2[N+](=O)[O-])cc1
  -3% | -7% | 1% | -3% | -5% | ? | 1%
- C/C(=N\Nc1ncc(Cl)cc1Cl)c1cccs1
  6% | -13% | 11% | 0% | -8% | ? | 7%
- O=C(O)c1cccnc1Sc1ccc(Cl)cc1
  0% | 1% | 6% | -7% | 5% | 3% | 7%
- COc1ccc(N2CCN(C3CC(=O)N(Cc4ccccc4)C3=O)CC2)cc1 (centres undefined)
  -1% | -16% | 4% | -3% | -7% | -10% | 4%
- O=C(CCC(=O)OCC(F)(F)C(F)F)Nc1ccccc1F
  -7% | . | -7% | -1% | -6% | -2% | 12%
- N#Cc1ccc(CN2CC3(CCN(C(=O)c4cnccn4)CC3)C2)cc1
  . | . | . | . | . | . | 3%
- CCNC(=O)C1(c2ccccc2)CCCC1
  2% | . | -3% | 0% | -7% | 1% | -3%
- C=C(C)c1cccc(C(C)(C)NC(=O)N2CCN(C)CC2)c1
  -1% | 11% | -4% | 3% | 3% | -4% | 1%
- Cc1nc2ccc(N=NC3=C(O)CC(C)(C)CC3=O)cc2s1
  -16% | -5% | 6% | -5% | -5% | ? | -5%
- CC1(OC(=O)C2CCCC2)C(=O)C=C2C=C(c3ccsc3)N(CC3CC3)C=C2C1=O (centres undefined)
  -12%[11.6 µM] | . | -1%[11.6 µM] | -1%[11.2 µM] | 3%[11.2 µM] | ? | 4%[17.5 µM]
- COc1ccc(/C=N/NC(=O)CSCC(=O)Nc2ccccc2)cc1OC
  -8% | 9% | 2% | -1% | 0% | -10% | 14%
- O=C(Nc1ccccc1)c1ccccc1O
  -16% | -1% | 5% | -7% | 2% | -12% | -11%
- COc1ccc(N(CC(=O)N/N=C/c2cc(Br)c(C)o2)S(=O)(=O)c2ccc(NC(C)=O)cc2)cc1
  ? | -17% | ? | -2% | 5% | 0% | -5%
- O=C(O)Cc1ccc(C(=O)c2ccc(Cl)cc2Cl)s1
  -7% | 64%[activator] | 5% | -1% | 14% | -13% | -2%
- CC(C(=O)Nc1ccc(S(=O)(=O)N2CCCCC2)cc1)N1CCN(c2ccccn2)CC1 (centres undefined)
  -7% | 11% | 2% | 1% | 0% | 0% | -1%
- CCOC(=O)C(=O)Nc1nc(-c2ccccc2)c(-c2ccccc2)o1
  0% | 7% | 5% | 0% | -15% | 7% | -1%
- Cc1c(C(=O)OCC(C)C)[nH]c2c1C(=O)CC(c1cccs1)C2 (centres undefined)
  -9% | . | -3% | 3% | 1% | -5% | -2%
- O=C(Nc1nc2c(s1)CCCC2)c1ccc(Br)s1
  ? | -1% | -6% | 1% | 4% | ? | -10%
- Cc1ccc(C2C(C#N)C(C#N)N3CCCN23)cc1 (centres undefined)
  -2% | 2% | 3% | 0% | -24% | -4% | -8%
- COC(=O)CCNC(=O)c1ccc2[nH]c(C)c(C)c2c1
  -13% | . | -8% | 0% | -3% | ? | -9%
- Cc1cc2sc(C(=O)O)c(C)c2s1
  -1% | 10% | -5% | -6% | 4% | 5% | 6%
- O=C(NC1CCCCC1)C(c1ccccc1)N1CCOCC1 (centres undefined)
  -1% | 0% | -3% | 1% | 1% | -6% | -4%
- CCOC(=O)c1c(-c2cccs2)csc1NC(C)=O
  -13% | -5% | -1% | 1% | 9% | -23% | 4%
- CSCCC(=O)Nc1ccc(C(C)=O)cc1
  -4% | -1% | 4% | -6% | 0% | ? | -10%
- O=C(O)c1ccc(NC(=O)C2(c3ccccc3)CCOCC2)cc1
  1% | . | -3% | -5% | 5% | -11% | 7%
- COc1ccc(OC)c(NC(=O)CSc2nnc(-c3ccco3)n2-c2ccccc2)c1
  -14% | -11% | -8% | 0% | 5% | -15% | -9%
- COc1ccc(CCCC(=O)N/N=C/c2ccccc2OC)cc1
  -8% | . | 1% | 1% | 6% | -12% | 3%
- O=C(c1ccccc1O)N1N=C(c2ccccc2)CC1(O)C(F)(F)F (centres undefined)
  -25% | . | 7% | -4% | -2% | ? | -20%
- CCC(CC)NC(=O)c1cccc(Br)c1
  0% | -2% | 2% | -2% | -2% | 4% | 3%
- C=CCSc1nncn1/N=C/c1ccc(OC)cc1
  3% | 0% | 0% | -4% | -2% | 0% | -2%
- Cc1nc(CN2CCN(C(=O)c3ccc(Br)cc3)CC2)cs1
  3% | . | 4% | 3% | 3% | 5% | 8%
- CN(C)C(=O)c1cc([N+](=O)[O-])ccc1O
  3% | 42%[activator] | 4% | -7% | -8% | -3% | 5%
- Cc1ccccc1C1CC(=O)Oc2cc(O)ccc21 (centres undefined)
  -4%[126 µM] | -8% | ? | 100µM*[fluorescent] | ? | -12%[126 µM] | -1%[119 µM]
- O=c1cc(O)nc(SCc2ccccc2)[nH]1
  -6% | 1% | -4% | -7% | 9% | ? | 13%
- CCOc1ccc(-c2csc(NC(=O)C3CCCO3)n2)cc1 (centres undefined)
  -11% | -1% | -1% | -6% | 0% | -22% | 2%
- O=C(C1CCCN(S(=O)(=O)c2cnc[nH]2)C1)N1CCN(Cc2ccccc2)CC1 (centres undefined)
  -2% | . | 0% | 0% | -12% | 1% | -2%
- O=C(COc1ccc(Cl)cc1Br)NC(=O)NCc1ccccc1
  -20% | 5% | -4% | 0% | -18% | -4% | -2%
- CSc1cccc(NS(=O)(=O)c2ccc(F)cc2)c1
  -19% | 33%[activator][11.4 µM] | -2% | 0% | -2% | -9% | 2%
- Cc1ccc(OCC(=O)NC(C)c2ccccc2)c([N+](=O)[O-])n1 (centres undefined)
  -2% | ? | ? | 0% | -1% | -2% | -4%
- CCn1nc(C)cc1C(=O)N1CCCC(C(=O)c2cccc(OC)c2)C1 (centres undefined)
  -2% | 15% | 6% | -1% | -1% | 0% | 16%
- CCCn1c(=O)c(C(=O)Nc2ncccc2C)c(O)c2ccccc21
  -6% | 1% | -8% | -2% | 8% | ? | -1%
- Cc1ccc(C(C)C)c(OCCCN2C(=O)NC(C)(C)C2=O)c1
  -20% | . | -1% | 1% | 5% | -18% | 1%
- CC(=O)N1CCC2(CC1)NC(=O)N(c1ccccc1)N2
  3% | . | 0% | -3% | -4% | -3% | 10%
- Cc1cccc(/C(N)=N/OC(=O)c2ccccc2Cl)c1
  -14% | 65%[activator] | 2% | 1% | -3% | -11% | -2%
- C[C@@H](C(=O)N[C@H](C(=O)O)c1ccccc1)n1nnc2ccccc2c1=O
  10% | 3% | 4% | 0% | -6% | 6% | -1%

The list is partial (hit frequency here may not be typical).
